DAGLB inh: DAGLB lipase inhibitors, primary screen, biochemical, fluorescence, HTS | Diacylglycerol lipase-beta (Homo sapiens), Q8NCG7 | HEK293T DAGLB membrane lysate, EnzChek fluorogenic substrate | inhibition, % at 5.17 µM | 0.059% of 340,000 active | AID 504411, 2011; in the data active means inhibition above about 34%;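 further: 0% = enzyme with vehicle and 100% = wells lacking enzyme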
PKA-R1A activ: activators of PKA-R1A holoenzyme, primary screen, biochemical, fluorescence polarization, Cy5-IP20, bovine R1A, mouse PKAc; PKA-R1A dissociation; scaled: DMSO 0%, 113 µM cGMP 100%; cAMP-dependent protein kinase type I-alpha regulatory subunit (Bos taurus) + …; 0.083% of 340,000 active; activation, % at 11.4 µM;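 active means percent activation above the mean of all tested compounds plus 3 SD, cut at about 19% in these data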;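 further: higher means more PKAc released from R1A so a rise in polarization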
DSG3 Ab inh: inhibitors of pemphigus antibody binding to DSG3, primary screen, biochemical, bead-based, flow cytometry, scFv-GFP. Desmoglein-3 (Homo sapiens), P32926. 0.48% of 310,000 active. binding (percent of control), % at 10 µM. DSG3-coupled beads, scFv-anti-DSG3-GFP binding; stronger effect = lower value. AID 588358, 2011;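 active means binding more than 3 SD below its plate's average and above zero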;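 further: hits lower antibody fragment binding to DSG3; some compounds called inactive have numbers as strong as hits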
Target sequence (P32926 whole entry, looked up, the tested form may be a part): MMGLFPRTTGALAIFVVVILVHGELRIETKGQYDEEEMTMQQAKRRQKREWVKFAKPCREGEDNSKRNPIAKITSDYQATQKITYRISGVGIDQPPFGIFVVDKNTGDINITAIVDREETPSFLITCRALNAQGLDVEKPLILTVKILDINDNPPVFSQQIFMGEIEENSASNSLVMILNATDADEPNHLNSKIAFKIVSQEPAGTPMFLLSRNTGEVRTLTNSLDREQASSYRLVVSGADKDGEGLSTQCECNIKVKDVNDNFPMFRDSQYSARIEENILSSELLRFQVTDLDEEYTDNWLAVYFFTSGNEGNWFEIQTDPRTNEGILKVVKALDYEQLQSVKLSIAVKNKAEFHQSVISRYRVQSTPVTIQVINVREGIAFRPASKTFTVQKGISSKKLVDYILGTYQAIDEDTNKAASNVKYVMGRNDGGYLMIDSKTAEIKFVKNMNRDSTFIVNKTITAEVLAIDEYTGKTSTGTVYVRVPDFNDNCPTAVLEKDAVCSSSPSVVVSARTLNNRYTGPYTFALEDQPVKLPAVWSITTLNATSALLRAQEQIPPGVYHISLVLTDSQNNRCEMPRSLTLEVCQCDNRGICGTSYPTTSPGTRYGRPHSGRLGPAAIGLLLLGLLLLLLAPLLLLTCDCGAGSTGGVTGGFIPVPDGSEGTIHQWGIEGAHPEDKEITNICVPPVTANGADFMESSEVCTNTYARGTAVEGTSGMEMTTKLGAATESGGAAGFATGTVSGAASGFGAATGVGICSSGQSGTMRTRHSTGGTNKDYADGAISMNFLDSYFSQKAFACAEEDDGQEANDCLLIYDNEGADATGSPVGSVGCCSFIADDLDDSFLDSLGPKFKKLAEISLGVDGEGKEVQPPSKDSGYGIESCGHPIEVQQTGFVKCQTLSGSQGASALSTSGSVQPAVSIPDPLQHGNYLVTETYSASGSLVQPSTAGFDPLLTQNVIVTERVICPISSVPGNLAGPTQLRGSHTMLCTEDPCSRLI
HTR5A ag: HTR5A agonists in luminescence cell assay, primary screen, counter-screen for OPRM1-OPRD1 heterodimer agonist project, full-deck HTS; 5-hydroxytryptamine receptor 5A (Homo sapiens), P47898; cell-based; activation, % at 9.3 µM; 0.61% of 340,000 active; in the data active means activation mostly above about 9.5%, no sharp cut-off; inactive means mostly below about 7.6%;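 further: 0% = cells with vehicle only and 100% = reference agonist; strong numbers were not always called active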
Arr AP2 block: inhibitors of beta-arrestin/AP2 binding, primary screen, biochemical, GPCR trafficking, flow cytometry | FITC-arrestin peptide / GST-AP2 beads; AP2 beta2 appendage carries R879A mutation | 0.31% of 340,000 active | AID 504490, 2011 | beta-arrestin 1 C-terminal peptide binding to AP2 beta2-adaptin appendage (human) | inhibition, % at 10 µM;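 active means inhibition above a set limit, near 3 SD of compounds lacking own fluorescence, cut at about 54% in these data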;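 further: plate controls were DMSO wells for no effect and 5 µM unlabelled arrestin peptide for full effect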
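System: GST-AP2 R879A glutathione beads. Medium: PBS with 0.05% Tween 20 and 0.1% BSA. Also added: FITC-arrestin peptide, 50 nM. Incubation: 12 min plus 1 h, RT. Measured by: high-throughput flow cytometry of beads, ex 488, em 535 nm. Evaluation: percent drop in bead-associated FITC signal.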
V-ATPase pHluor: regulators of yeast V-ATPase proton pumping, primary screen, pHLuorin cytosolic pH fluorescence. AID 504577, 2011. S. cerevisiae. 0.37% of 350,000 active. response, % at 10 µM; in the data active means response mostly above about 7.3%, no sharp cut-off; inactive means mostly below about 5.4%; further: actives read high; inactives centre near 0; some compounds called inactive have numbers as strong as hits; reference of the scale not given here
HTR5A inv ctr: HTR5A inverse agonists in luminescence cell assay, primary screen, counter-screen for OPRM1-OPRD1 heterodimer inverse agonist project, full-deck HTS; inhibition, % at 9.3 µM; HTR5A cell line, inverse agonism; 5-hydroxytryptamine receptor 5A (Homo sapiens), P47898; AID 504634, 2011; 0.083% of 340,000 active; in the data active means inhibition mostly above about 23%, no sharp cut-off; inactive means mostly below about 18%;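 further: 0% = cells with DMSO and 100% = no-cell wells with DMSO; some compounds called inactive have numbers as strong as hits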
PKA-R2B activ: activators of PKA-R2B holoenzyme, primary screen, biochemical, fluorescence polarization, Cy5-IP20, human | AID 504700, 2011 | 0.079% of 340,000 active | cAMP-dependent protein kinase catalytic subunit beta (Homo sapiens) + cAMP-dependent … | PKA-R2B holoenzyme dissociation; R2B truncated from residue 108, S112A mutant; 0% DMSO only, 100% 113 µM cGMP | activation, % at 11.4 µM;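 active means activation above a cutoff set at the mean over all compounds plus 3 SD, cut at about 18% in these data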;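 further: higher means more holoenzyme dissociation and a rise in polarization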
An asterisk follows results filed as active; . = not tested or not shown; & = joins results of further samples.

Keys – A = DAGLB inh; B = PKA-R1A activ; C = DSG3 Ab inh; D = HTR5A ag; E = Arr AP2 block; F = V-ATPase pHluor; G = HTR5A inv ctr; H = PKA-R2B activ
CC/C(=C(/CC)c1ccc(O)cc1)c1ccc(O)cc1
  A: 2; B: 1; C: 102; D: -4; E: 15; F: 6; G: -2; H: 12

O=C1O[C@H]([C@@H](O)CO)C(O)=C1O
  A: 3; B: -5; C: 104; D: 8; E: -5; F: -5; G: 4; H: -5

Fc1ccc(C2CCNCC2COc2ccc3c(c2)OCO3)cc1 (stereo not given)
  A: 1; B: 6; C: 103; D: 2; E: 16; F: 3; G: -8; H: -1

O=C1CC2(CCCC2)CC(=O)N1CCCCN1CCN(c2ncccn2)CC1
  A: 1; B: 12; C: 98; D: -1; E: 5; F: 3; G: 2; H: 23*

CC12CCC3c4ccc(O)cc4CCC3C1CCC2=O (stereo not given)
  A: 2; B: -2; C: 92; D: -1; E: -2; F: 0; G: 4; H: 1

CC(C)NCC(O)COc1cccc2[nH]ccc12 (stereo not given)
  A: -1; B: -4; C: 122; D: 0; E: -6; F: -2; G: 1; H: 6

CCN(CC)Cc1cc(Nc2ccnc3cc(Cl)ccc23)ccc1O
  A: 2&3; B: -2&-5; C: 104&112; D: 0&4; E: 20&0; F: 6&3; G: -6&-6; H: -11&4

O=c1c(O)c(-c2ccc(O)c(O)c2)oc2cc(O)cc(O)c12
  A: 6; B: -10; C: 76; D: 5; E: 20; F: 9; G: -6; H: 6

CC[C@H](CO)NCCN[C@H](CC)CO
  A: 1; B: -9; C: 100; D: 4; E: 0; F: -2; G: -13; H: -4

O=C(NC(CO)C(O)c1ccc([N+](=O)[O-])cc1)C(Cl)Cl (stereo not given)
  A: 2; B: -5; C: 90; D: -2; E: 10; F: 3; G: -14; H: -7

CC1(C)S[C@@H]2[C@H](NC(=O)Cc3ccccc3)C(=O)N2[C@H]1C(=O)O
  A: 2&-1; B: -5&-5; C: 105; D: -1&-2; E: 25&9; F: -3&-2; G: -4&6; H: 1&-1

NCCCC[C@H](N[C@@H](CCc1ccccc1)C(=O)O)C(=O)N1CCC[C@H]1C(=O)O
  A: 2&1; B: -4&-9; C: 95&109; D: 2&-2; E: 10&-9; F: -2&-1; G: -6&7; H: 2&-4

CC(O)Cn1cnc2c1c(=O)n(C)c(=O)n2C (stereo not given)
  A: 3; B: 9; C: 119; D: 0; E: 5; F: -1; G: -14; H: 1

NC[C@H](O)c1ccc(O)c(O)c1
  A: 2; B: 5; C: 99; D: 6; E: -7; F: -3; G: -4; H: -7

COc1ccccc1OCC(O)CO (stereo not given)
  A: 1; B: -2; C: 104; D: -3; E: 4; F: 1; G: 10; H: -8

Cc1ccnc(NS(=O)(=O)c2ccc(N)cc2)n1
  A: 0; B: -1; C: 99; D: 1; E: 6; F: 2; G: -3; H: 12

O=C(O)Cc1ccc(-c2ccccc2)cc1
  A: 0; B: -4; C: 98; D: 1; E: -3; F: -2; G: -32; H: 4

CCN(CC)CCOc1ccc(/C(=C(\Cl)c2ccccc2)c2ccccc2)cc1
  A: -1; B: -12; C: 110; D: 11; E: 3; F: 7; G: 12; H: -11

O=[N+]([O-])c1cc(Cl)c(O)c2ncccc12
  A: 9; B: -2; C: 100; D: -4; E: 7; F: 3; G: 10; H: -4

COCCc1ccc(OCC(O)CNC(C)C)cc1 (stereo not given)
  A: 1&2&0; B: -1&1&7; C: 102&114&116; D: 6&3&2; E: 11&4&5; F: -5&0&-2; G: -9&-16&-17; H: -4&9&3

CC(=O)OCC(=O)[C@@]1(O)CC[C@H]2[C@@H]3CCC4=CC(=O)CC[C@]4(C)[C@H]3C(=O)C[C@@]21C
  A: 2; B: -9; C: 102; D: 8; E: 1; F: 2; G: -28; H: 4

OC(CCN1CCCC1)(c1ccccc1)C1CCCCC1 (stereo not given)
  A: 0; B: -2; C: .; D: -5; E: 15; F: 3; G: 19; H: -1

OC[C@@H](O)[C@@H](O[C@@H]1O[C@H](CO)[C@H](O)[C@H](O)[C@H]1O)[C@H](O)[C@@H](O)CO
  A: 3; B: 5; C: 109; D: 4; E: 4; F: -1; G: -15; H: -2

CC1C=CC=CC=CC=CC=CC=CC=CC(OC2OC(C)C(O)C(N)C2O)CC2OC(O)(CC(O)CC(O)C(O)CCC(O)CC(O)CC(=O)OC(C)C(C)C1O)CC(O)C2C(=O)O (stereo not given)
  A: -2; B: 6; C: 115; D: 2; E: 2; F: 15; G: -6; H: -3

CCOC(=O)C1=C(COCCN)NC(C)=C(C(=O)OC)C1c1ccccc1Cl (stereo not given)
  A: 4&1&3; B: 5&4&8; C: 112&122&103; D: 5&1&7; E: 17&5&0; F: 0&-5&2; G: -17&13&-30; H: 3&1&1

CC(=O)Nc1nnc(S(N)(=O)=O)s1
  A: 1; B: -19; C: 108; D: -2; E: 5; F: -11; G: 6; H: 8

CN1CCN2c3ccccc3Cc3ccccc3C2C1 (stereo not given)
  A: 2; B: 2; C: 106; D: 0; E: 3; F: 4; G: 1; H: 12

CCOc1ccc(NC(C)=O)cc1
  A: 1; B: -5; C: 116; D: 0; E: 0; F: 0; G: -27; H: 2

CCN(CC)CCOC(=O)C1(C2CCCCC2)CCCCC1
  A: 0; B: 12; C: .; D: -1; E: -1; F: -2; G: 5; H: 2

O=C(O)CCCCC1SCC2NC(=O)NC21 (stereo not given)
  A: -2; B: 1; C: .; D: 0; E: 22; F: 3; G: 14; H: 0

CCC(CO)NCCNC(CC)CO (stereo not given)
  A: -1; B: -13; C: 110; D: 2; E: 20; F: 2; G: 0; H: -6

O=C1O[C@@H]([C@H](O)CO)C(O)=C1O
  A: 3; B: 10; C: 99; D: -4; E: 27; F: -2; G: 1; H: 1

O=c1[nH]c(=O)n([C@H]2C[C@H](O)[C@@H](CO)O2)cc1C(F)(F)F
  A: 2; B: 4; C: 92; D: -2; E: 6; F: -8; G: 6; H: -5

C=CC[N@@+]12CC[C@]34c5ccccc5N5/C=C6\C7N(/C=C(\C53)[C@@H](C[C@@H]41)/C(=C/CO)C2)c1ccccc1[C@@]71CC[N@@+]2(CC=C)C/C(=C\CO)[C@@H]6C[C@@H]12 (stereo not given in full)
  A: 0; B: 4; C: 92; D: 3; E: 28; F: 3; G: -12; H: 4

CCCNC(C)(C)COC(=O)c1ccccc1
  A: 0; B: 0; C: 99; D: 5; E: -2; F: 0; G: -19; H: -7

CN1CCN2c3ncccc3Cc3ccccc3[C@@H]2C1
  A: 0; B: -4; C: .; D: -3; E: 1; F: -2; G: 11; H: -11

CCOc1ccccc1O[C@H](c1ccccc1)[C@H]1CNCCO1
  A: 0; B: 5; C: 117; D: -2; E: 4; F: 4; G: -27; H: -3

Cc1cccc(C)c1NC(=O)CN1CCN(CCCC(c2ccc(F)cc2)c2ccc(F)cc2)CC1
  A: -2; B: 8; C: 111; D: 2; E: 0; F: -3; G: 0; H: -16

OC(CCN1CCCCC1)(c1ccccc1)C1C[C@@H]2C=C[C@H]1C2 (stereo not given in full)
  A: 3; B: -6; C: 113; D: -3; E: 2; F: 2; G: 9; H: 1

Nc1ncnc2c1ncn2[C@@H]1O[C@H](CO)[C@@H](O)[C@@H]1O
  A: 0; B: 1; C: 105; D: -1; E: -4; F: 4; G: 4; H: 5

CCc1c(C)[nH]c2c1C(=O)C(CN1CCOCC1)CC2 (stereo not given)
  A: 1; B: -1; C: 101; D: 3; E: 14; F: -3; G: -10; H: 10

CO/N=C(\C(=O)N[C@@H]1C(=O)N2C(C(=O)O)=C(COC(C)=O)CS[C@H]12)c1csc(N)n1 (stereo in doubt)
  A: 2&1&5; B: -1&-9&-1; C: 106&106&100; D: 1&0&-1; E: 6&16&-2; F: 6&2&-2; G: -13&-22&5; H: 3&-6&4

CC(C)NC[C@@H](O)COc1ccc(CC(N)=O)cc1
  A: -1; B: -1; C: 110; D: 2; E: -5; F: -2; G: -14; H: 6

COc1ccc2c(c1OC)C(=O)O[C@@H]2[C@H]1c2c(cc3c(c2OC)OCO3)CCN1C
  A: -2; B: 9; C: 101; D: 0; E: 3; F: -2; G: -18; H: -4

Cc1[nH]cnc1CN1CCc2c(c3ccccc3n2C)C1=O
  A: 3; B: -18; C: 101; D: -2; E: 29; F: -4; G: 5; H: 0

O=C(O)[C@@H](O)[C@H](O)C(=O)O
  A: 1; B: -9; C: 107; D: 0; E: 0; F: -1; G: -8; H: 4

CCc1cccc2c3c([nH]c12)C(CC)(CC(=O)O)OCC3 (stereo not given)
  A: 2; B: 2; C: 98; D: -1; E: 17; F: 0; G: -9; H: 11

Eight entries out of the list, arranged by SMILES length, ascending:
Keys – A = DAGLB inh; B = PKA-R1A activ; C = DSG3 Ab inh; D = HTR5A ag; E = Arr AP2 block; F = V-ATPase pHluor; G = HTR5A inv ctr; H = PKA-R2B activ
CCCNC(C)(C)COC(=O)c1ccccc1
  A: 0; B: 0; C: 99; D: 5; E: -2; F: 0; G: -19; H: -7

O=C(O)[C@@H](O)[C@H](O)C(=O)O
  A: 1; B: -9; C: 107; D: 0; E: 0; F: -1; G: -8; H: 4

CCc1cccc2c3c([nH]c12)C(CC)(CC(=O)O)OCC3 (stereo not given)
  A: 2; B: 2; C: 98; D: -1; E: 17; F: 0; G: -9; H: 11

OC(CCN1CCCCC1)(c1ccccc1)C1C[C@@H]2C=C[C@H]1C2 (stereo not given in full)
  A: 3; B: -6; C: 113; D: -3; E: 2; F: 2; G: 9; H: 1

Nc1ncnc2c1ncn2[C@@H]1O[C@H](CO)[C@@H](O)[C@@H]1O
  A: 0; B: 1; C: 105; D: -1; E: -4; F: 4; G: 4; H: 5

O=c1[nH]c(=O)n([C@H]2C[C@H](O)[C@@H](CO)O2)cc1C(F)(F)F
  A: 2; B: 4; C: 92; D: -2; E: 6; F: -8; G: 6; H: -5

CO/N=C(\C(=O)N[C@@H]1C(=O)N2C(C(=O)O)=C(COC(C)=O)CS[C@H]12)c1csc(N)n1 (stereo in doubt)
  A: 2&1&5; B: -1&-9&-1; C: 106&106&100; D: 1&0&-1; E: 6&16&-2; F: 6&2&-2; G: -13&-22&5; H: 3&-6&4

C=CC[N@@+]12CC[C@]34c5ccccc5N5/C=C6\C7N(/C=C(\C53)[C@@H](C[C@@H]41)/C(=C/CO)C2)c1ccccc1[C@@]71CC[N@@+]2(CC=C)C/C(=C\CO)[C@@H]6C[C@@H]12 (stereo not given in full)
  A: 0; B: 4; C: 92; D: 3; E: 28; F: 3; G: -12; H: 4

High-throughput results as filed in PubChem.

A portion of the library; rates above refer to the full screens.
